# SARS PLP yeast = qHTS of Yeast-based Assay for SARS-CoV PLP | S. cerevisiae expressing SARS-CoV PLpro, growth rescue; control for the full effect not named in the record | Potency, µM (top dose mostly 32.9 µM), for inactives: at the highest dose activity, positive = growth rescue | 330,000 tested, 0.19% active; further: 0% is about no effect; nearly all actives have a fitted effect of over 55% in size; growth read by luminescence after 48 h
# Cruzain Triton = qHTS Assay for Promiscuous and Specific Inhibitors of Cruzain (with detergent). 200,000 tested, 0.43% active. purified cruzain, Z-FR-AMC fluorescence, 0.01% Triton. Cruzipain (Trypanosoma cruzi), P25779. Potency, µM, for inactives: max response, negative = inhibition, usual class: inhibitors; active means well fitted curve in the direction sought with a large enough effect; inconclusive means small, poorly fitted or top-dose-only effect, or another doubt; inactive means no such curve, though single readings can be large; an effect the other way counts as inactive or inconclusive;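 further: plate controls were neutral wells for no effect and buffer without enzyme for full effect; nearly all actives have a fitted effect of over 40% in size; top concentration of the series not given in the record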
# Target sequence (P25779 123-467 limits assumed): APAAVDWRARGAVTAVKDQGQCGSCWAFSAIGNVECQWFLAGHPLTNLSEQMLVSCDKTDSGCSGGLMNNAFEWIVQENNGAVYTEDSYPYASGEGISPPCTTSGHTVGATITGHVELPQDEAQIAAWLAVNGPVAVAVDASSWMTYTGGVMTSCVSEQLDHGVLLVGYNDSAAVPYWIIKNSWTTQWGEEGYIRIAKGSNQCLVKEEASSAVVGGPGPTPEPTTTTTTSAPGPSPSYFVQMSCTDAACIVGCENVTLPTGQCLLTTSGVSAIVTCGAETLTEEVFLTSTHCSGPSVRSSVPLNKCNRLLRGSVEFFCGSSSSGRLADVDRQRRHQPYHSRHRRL
#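 Sodium acetate buffer (100 mM, pH 5.5) containing 5 mM DTT and 0.01% Triton X-100 hosted 1.5 nM cruzain and test compound for 15 min at room temperature. Cleavage of 2 uM Z-FR-AMC was then tracked by fluorescence.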
# 2A StopGo = High Throughput Screening for Foot and Mouth Disease Virus Antivirals; human cells with a luciferase reporter of 2A StopGo recoding; control for the full effect not named in the record; Potency, µM (doses to about 57.9 µM), for inactives: at the highest dose signal change, negative = less light; 410,000 tested, 1.2% active; active = well fitted falling curve with a large enough effect; inconclusive = small, poorly fitted or top-dose-only effect; inactive = no such curve, though single readings can be large or run the other way; tested in HEK293T cells; further: on the % scale 0 is the no-effect control and ±100 the full control effect; nearly all actives have a fitted effect of over 45% in size; luciferase light after 4 h
# RE007 growth inh = qHTS Assay for Inhibitors of the HIV-1 protein Vpr; AID 651644, 2012; 360,000 tested, 0.21% active; Potency, µM (top dose mostly 92.2 µM), inactives show top-dose activity change, negative = less growth; S. pombe RE007 Vpr strain, BacTiter-Glo ATP luminescence, 24 h; control for the full effect not named in the record; active = well fitted falling curve with a large enough effect; inconclusive = small, poorly fitted or top-dose-only effect; inactive = no such curve, though single readings can be large or run the other way;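 further: on the % scale 0 is the no-effect control and ±100 the full control effect; nearly all actives have a fitted effect of over 50% in size; the assay follows cell death caused by Vpr and the record does not say whether a fall means rescue or toxicity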
#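 Fission yeast strain RE007, carrying one chromosomally integrated HIV-1 vpr copy, was seeded at OD 0.01 in PMG+AL medium with 23 nL pinned compound. After 24 h at 30 °C and 99% humidity, viability was read by BacTiter-Glo luminescence.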
# NS1 inh = qHTS Assay for Inhibitors of Influenza NS1 Protein Function; S. cerevisiae slowed by influenza A NS1, growth recovery by OD600; 270,000 tested, 0.4% active; AID 2326, 2010; Potency, µM (doses to about 46.1 µM), inactives show at the highest dose activity, positive = more growth; further: actives are rising curves; nearly all actives have a fitted effect of over 50% in size
#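 OD600 was taken as the measure of yeast growth restored by compound in an NS1-expressing S. cerevisiae strain. Cells had been washed out of glucose medium and diluted 1:100 into galactose -URA medium, pH 6.0.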
# MARV entry inh = qHTS for inhibitors of binding or entry into cells for Marburg Virus | AID 540276, 2011 | Potency, µM (series often up to 37.8 µM), for inactives: at the top dose activity change, negative = inhibition, actives largely listed as inhibitors | Marburg virus pseudotyped entry inhibition, cell reporter; control for the full effect not named in the record; about a third of the inactives were read at about 46 µM | 300,000 tested, 1.8% active; active = well fitted inhibition curve with a large enough effect; inconclusive = small, poorly fitted or top-dose-only effect, or effect the other way; inactive = flat fitted curve, though single readings scatter; tested in HEK293 cells; about a fifth of its hits are not listed in these tables; further: on the % scale 0 is the no-effect control and ±100 the full control effect; luciferase read-out
# Lassa entry inh = qHTS for Inhibitors of binding or entry into cells for Lassa Virus. AID 540256, 2011. Potency, µM (top dose mostly 37.9 µM), without a hit: at the highest dose activity change, negative = inhibition, most hits filed as inhibitors. Lassa virus pseudotype entry inhibition, cell reporter; control for the full effect not named in the record. 300,000 tested, 1.2% active; active means well fitted inhibition curve with a large enough effect; inconclusive means small, poorly fitted or top-dose-only effect, or effect the other way; inactive means flat fitted curve, though single readings scatter; tested in HEK293 cells; further: on the % scale 0 is the no-effect control and ±100 the full control effect; nearly all actives have a fitted effect of over 50% in size; luciferase read-out
# Cruzain noTriton = qHTS Assay for Promiscuous and Specific Inhibitors of Cruzain (without detergent). Potency, µM, for the others: max response, negative = inhibition, actives largely listed as inhibitors. 200,000 tested, 2.3% active. purified cruzain, Z-FR-AMC fluorescence, no detergent. Cruzipain (Trypanosoma cruzi), P25779. AID 1476, 2009; active means well fitted curve in the direction sought with a large enough effect; inconclusive means small, poorly fitted or top-dose-only effect, or another doubt; inactive means no such curve, though single readings can be large; an effect the other way counts as inactive or inconclusive;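 further: plate controls were enzyme without inhibitor for no effect and buffer without enzyme for full effect; nearly all actives have a fitted effect of over 40% in size; top concentration of the series not given in the record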
#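 Purified cruzain at 1.5 nM, pre-incubated 15 min with compound at room temperature in 100 mM sodium acetate pH 5.5, 5 mM DTT, 0.00005% Triton X-100. Reaction started with 2 uM Z-FR-AMC; AMC fluorescence increase over 60 s gives rate.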
# Starred values were filed as active, the others as inactive; ? = inconclusive; nt = no result given; & = joins results of further samples; [ ] = remark or other dose. Unless noted, the call rests on the fitted dose curve; in most records, active means well fitted rising curve with a large enough effect; inconclusive means small, poorly fitted or top-dose-only effect; inactive means no such curve, though single readings can be large or run the other way. Potency means the concentration at half of the fitted maximal effect.
SMILES,SARS PLP yeast,Cruzain Triton,2A StopGo,RE007 growth inh,NS1 inh,MARV entry inh,Lassa entry inh,Cruzain noTriton
CC1CN(C)C(C)C/C1=N/Oc1ccccc1[N+](=O)[O-] (centres undefined),0%,nt,-17%,-3%,2%,?,-5%[46.1 µM],nt
Cc1ccc(C)c(Cn2c3ccccc3c3cnn(CC(=O)NCCCN4CCOCC4)c(=O)c32)c1,-1%,nt,41%[activator],11%,-10%,?,-2%[46.1 µM],nt
O=C(CSc1nnc(-c2cccc(S(=O)(=O)N3CCOCC3)c2)n1C1CCCCCC1)NCc1ccccc1,-2%,-3.3%,-8%,8%,-8%,-19%,7%,?
COc1nc(N)c(C#N)c(-c2ccc(N(C)CCC#N)cc2)c1C#N,3%,nt,?,-12%,2%,nt,nt,nt
Cc1ccccc1OCCCn1c(-c2ccc(Cl)cc2)nc2ccccc2c1=O,nt,2.2%,-5%,nt,nt,14%[46.1 µM],1%[46.1 µM],-18%
CCOC(=O)C1=C(c2ccccc2)Nc2c(c(=O)n(C)c(=O)n2C)C1c1ccc(O)c(OC)c1 (centres undefined),-4%,-4.6%,31%[activator],4%,14%,-17%,-18%,-6%
COC1=CC2(O)CCCC2=CC1=O (centres undefined),8%,nt,-13%,6%,9%,nt,nt,nt
Cc1ccc(N2C(N)=NC(N)=NC2(C)C)c(C)c1,-23%,-2.4%,-13%,8%,3%,3%,12%,4%
CCc1ccccc1NC(c1nnc(-c2cccc(F)c2)o1)c1ccc(F)cc1Cl (centres undefined),nt,-4.5%,-3%,nt,nt,-25%[46.1 µM],26%[46.1 µM],?
O=C(c1ccccn1)C1CCCN(Cc2nc(Cc3cccc(F)c3)no2)C1 (centres undefined),0%,nt,?,1%,-10%,0%[46.1 µM],-28%,nt
OCC1(CCOc2ccccc2)CCN(C2Cc3ccccc3C2)CC1,0%,nt,-25%,-2%,0%,nt,nt,nt
COc1ccc(/C=C(/C#N)c2nc(-c3cc4ccccc4oc3=O)cs2)cc1,nt,1.8%,5%,nt,nt,nt,15%[46.1 µM],-4%
Cc1cc(Nc2ccccc2C)c2cccc(C)c2n1,nt,-6.0%,-12%,nt,nt,nt,?,-6%
Oc1ccccc1N1CCN(c2nc(-c3cccs3)nc3ccccc23)CC1,-3%,nt,-24%,3%,6%,nt,nt,nt
CCOC(=O)CCC(=O)Nc1cccc([N+](=O)[O-])c1,-5%,-2.5%,-7%,5%,-3%,0%,21%,-4%
CCOC(=O)c1c(NC(=O)COC(=O)Cn2cnc3ccccc32)sc(C)c1C,-12%,2.7%,-6%,3%,-53%,-8%,17%,-3%
CCN1C(=O)/C(=C2\SC(N3CCOCC3)=NC2=O)c2ccccc21,2%,nt,2%,7%,3%,nt,nt,nt
O=C(CC1SC(=O)N(Cc2ccc(Cl)cc2)C1=O)Nc1nccs1 (centres undefined),7%,-1.9%,0%,-21%,-2%,2%,-10%,4%
COC(=O)Cn1cc(/C=C(/C#N)C(=O)N2CCOCC2)c2ccccc21,0%,nt,25%,17%,0%,14%[46.1 µM],18%,nt
CC1(C)CN=C(NCc2ccccc2Cl)S1,-3%,-0.7%,25%,-10%,-11%,?,-19%,-1%
CCC(=O)NC(=S)Nc1ccc(NC(=O)c2ccc(OC)cc2)cc1,32%,2.4%,-7%,-2%,1%,-29%,-6%,?
NC(=O)C(CC(=O)O)NC(=O)[C@@H]1CCCCNc2c(I)cc([N+](=O)[O-])cc2C(=O)N[C@@H](CO)C(=O)NCC(=O)N1 (some centres undefined),7%,-13%,nt,nt,-28%,11%,2%,19%
Cc1ccc2nc(-c3cccs3)oc(=O)c2c1,1%,nt,25%,?,nt,-1%,1%,nt
Cc1ccc(NC2CC(=O)N(c3cccc([N+](=O)[O-])c3)C2=O)cc1 (centres undefined),-3%,nt,-3%,-9%,2%,-6%[46.1 µM],11%,nt
Cc1ccccc1CSc1nc2c([nH]c3ccccc32)c(=O)n1-c1ccccc1,nt,1.2%,-19%,nt,nt,nt,26%[46.1 µM],-13%
COc1ccc(N2CCN(C(=S)NCc3ccccc3)CC2)cc1,-1%,nt,22%,-13%,3%,-18%[46.1 µM],17%,nt
COc1ccc(-c2csc3nc(-c4cccnc4)nc(N4CCC(C(N)=O)CC4)c23)cc1OC,-8%,25µM*,-21%,12%,-16%,?,-2%,?
CCCCNC(=O)CC1S/C(=N/N=C/c2ccc(OC)cc2)NC1=O (centres undefined),-2%,nt,4%,-8%,nt,8%,?,nt
CCOC(=O)C(C)Sc1nc(C2CC2)cc(C(F)(F)F)c1C#N (centres undefined),-8%,-6.0%,-12%,9%,-7%,0%,-1%,-7%
C=CCn1cc(CN2CCC(C(=O)Nc3ccc(Oc4cccnc4)cc3)CC2)c(C)n1,-4%,nt,10%,-11%,-14%,nt,nt,nt
CC1CCN(C(=O)CCNS(=O)(=O)c2ccccc2)CC1,0%,3.4%,49%[activator],3%,?,?,12%,-6%
CC(=O)C1=C(c2ccccc2)NC(=O)NC1c1ccccc1OCC(=O)NCc1ccccc1 (centres undefined),1%,5.1%,-14%,-10%,1%,-11%,-5%,8%
COc1ccccc1N1CCN(S(=O)(=O)CCNC(=O)C2CC(=O)N(c3ccccc3)C2)CC1 (centres undefined),3%,-0.8%,?,5%,-9%,nt,3%[46.1 µM],?
CCc1ccccc1NC(=O)Cn1c(=O)n(Cc2ccc(OC)cc2)c(=O)c2oc3ccccc3c21,nt,-0.5%,-1%,nt,nt,nt,7%[46.1 µM],1%
CN(C)CCSc1nc(N)c2c3c(sc2n1)CN(C)CC3,6%,-6.9%,5%,-13%,3%,-19%,-2%,-9%
N#CCC(=O)Nc1ccc(C(=O)NCCC(c2ccccc2)c2ccccc2)cc1,-3%,nt,-27%,16%,24%,-6%[46.1 µM],nt,nt
COc1ccc(Nc2cc(C(=O)NCCCN(C)C3CCCCC3)c3ccccc3n2)c(OC)c1,nt,-10%,0%,nt,nt,?,?,-22%
CCc1nnc(NC(=O)CSc2sc3c(O)cc(=O)[nH]c3c2C#N)s1,0%,nt,11%,-7%,23%,10%[46.1 µM],-7%[46.1 µM],nt
CC(=O)Nc1ccc(NC(=O)c2ccccc2CC[N+](=O)[O-])cc1,4%,3.9%,-4%,-2%,7%,33%,-9%,-2%
CC(=O)N1c2ccc(S(=O)(=O)N3CCCCC3)cc2CC1C(=O)Nc1ccc(F)cc1C (centres undefined),0%,nt,-3%,-8%,9%,?,10%[46.1 µM],nt
Cc1ccccc1OCC(=O)Nc1nnc(-c2ccncc2)s1,-3%,nt,-24%,-19%,-53%,22%[46.1 µM],-1%[46.1 µM],nt
CCOc1ccccc1CNC(=O)C1CCN(S(=O)(=O)c2c(C)noc2/C=C/c2ccc(C)cc2)CC1,nt,0.9%,-4%,nt,nt,nt,?,-12%
CCC1C(=O)N=C(SCC(=O)Nc2ccccc2)NC1=O (centres undefined),15%,-2.3%,-20%,16%,10%,3%,1%,-9%
Cc1ccc(S(=O)(=O)CC(=O)Nc2cc(C)on2)cc1,3%,nt,-3%,-9%,8%,-2%[46.1 µM],nt,nt
COc1ccc(NC(=O)c2c(NC(=O)CNCc3ccco3)sc3c2CCC3)cc1,-2%,-2.3%,-3%,-1%,-16%,15%,-14%,-27%
CCOCCOC(=O)C(C)Oc1ccc(Oc2nc(Cl)ccc2Cl)cc1 (centres undefined),0%,nt,-20%,-3%,3%,nt,nt,nt
Cc1ccc(S(=O)(=O)N(C)C)cc1NC(=S)NC1CCCC(C)C1C (centres undefined),7%,-4.6%,?,3%,28%,?,?,-7%
CC(C)c1ccc(-c2noc(SCC(=O)N3CCCCC3)n2)cc1,nt,0.1%,6%,nt,nt,nt,?,11%
CCn1cc(C(=O)NCCCN2CC(C)CC(C)C2)c2cc(OC)c(OC)cc2c1=O (centres undefined),1%,6.6%,18%,18%,-8%,-1%&-1%,1%,13%
O=[N+]([O-])c1ccc(N2CCOCC2)cc1SCc1ccco1,23%,-15%,-18%,-20%,-2%,?,2%,2%
O=C(O)c1ccc2c(c1)C(=O)N(c1cccc(-c3nc4ccccc4s3)c1)C2=O,0%,nt,6%,-5%,1%,?,-19%[46.1 µM],nt
CCN(CC)CCOc1ccc(Br)cc1,8%,-1.2%,nt,3%,1%,3%,1%,-8%
S=C(Nc1ccccc1)c1ccccn1,0%&-16%,0.1%,24%,?,-4%&-45%,?,?,-18%
CCn1cc(C(=O)NCCCN(C)c2ccccc2)c(=O)c2cc(S(=O)(=O)N(C)C)ccc21,6%,-7.1%,1%,-16%,-21%,nt,nt,?
CC1CN(C(=O)c2ccc3c(c2)OCO3)OC(c2ccccc2)O1 (centres undefined),1%,-3.4%,-16%,-12%,-27%,19%,14%,-12%
Cc1nc(-c2c(-c3ccc(O)cc3O)noc2C(F)(F)F)cs1,-3%,-9.3%,35µM*,-11%,-2%,?,?,1%
CC(=O)Nc1ccc(S(=O)(=O)Nc2nc3ccccc3nc2Nc2cccc(O)c2)cc1,-1%,nt,9%,-24%,-8%,-13%[46.1 µM],25%,nt
COc1ccc(NC(=O)C2CCN(C(=O)Cc3ccccc3)CC2)c(OC)c1,1%,nt,2%,-5%,0%,-1%[46.1 µM],-1%,nt
CCCCNC(=S)Nc1cccc2cnccc12,-1%,-0.8%,-4%,-11%,-4%,?,-13%,-1%

# Source: PubChem
